Screening data: PubChem, Fisher Drug Discovery Resource Center
NPYLR7 ag: agonists of mosquito NPYLR7 receptor, primary screen, cell-based, Aedes aegypti, calcium fluorescence, mosquito biting behavior | Aedes aegypti neuropeptide Y-like receptor 7 (NPYLR7) | HEK293T NPYLR7/Galpha15, GCaMP6s calcium fluorescence | activation, % at 10 µM | 270,000 tested, 0.15% active | AID 1259423, 2018; in the data active = activation above about 40%;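 also: 0% = vehicle and 100% = reference agonist at the receptor; some compounds past the cut are filed as inactive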
NPYLR7 ag max-min: also measured in NPYLR7 ag; calls as there; activation, %; measured here: Max-Min RFU normalised activation; some inactives read as strong as hits;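 span of the calcium signal over five minutes; 0% = vehicle and 100% = native peptide agonist; compound fluorescence can raise it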
* = called active by the depositor; & = joins results of further samples. The list is partial; rates above refer to the full screens.

smiles | NPYLR7 ag | NPYLR7 ag max-min
CC1=NC2=C(C(=O)CC(c3ccccc3)C2)C(c2ccccc2F)C1C(=O)OCc1ccccc1 (stereo unspecified) | 3 | 10
Cc1cccc(-n2cc(-c3ccccc3)c3c(NCCOCCO)ncnc32)c1 | -5 | -6
COc1ccc(CCNC(=O)c2ccccc2N2CCC(NC(=O)c3ccccc3C)CC2)cc1 | 15 | 8
Cc1ccc(NC(=O)Nc2ccc(N3CCCC3)c(C(=O)NCc3ccccc3)c2)cc1C | 4 | 4
CNC(=O)[C@@H]1C[C@H]2CN(CCOC)C(=O)c3cccc(c32)N1C(=O)Cc1ccc(OC)cc1 | 2 | 10
Cc1ccc2c(c1)CN(Cc1ccc(C)s1)CC(C)O2 (stereo unspecified) | 6 | 3
O=C(NCCCc1ccccc1)c1cn(C2CCCCC2)nn1 | 5 | -5
CCCC(=O)N1CCN(S(=O)(=O)c2c(C)c(C)cc(C)c2C)CC1 | 0 | 2
O=C(NC1CCCC(C(F)(F)F)C1)c1ccc2c(c1)OCCCO2 (stereo unspecified) | 11 | 11
CCC(=O)N(Cc1csc(COc2c(OC)cccc2OC)n1)C1CC1 | 23 | 26
COc1ccccc1-c1cccc(C(=O)N2CCc3[nH]ncc3C2)c1 | -3 | -5
COc1ccc(S(=O)(=O)N2CCN(c3nc(C)nc(C)c3Cc3ccccc3Cl)CC2)cc1 | -1 | 2
CC(=O)Oc1ccccc1Cn1c(C)c(C(=O)NCc2ccc(C(F)(F)F)cc2)sc1=O | 10 | 7
c1ccc2[nH]c(-c3ccncc3)nc2c1 | 1 | 2
Cc1cccc(C(=O)Nc2c(C)nc3sccn3c2=O)c1 | 6 | -6
O=C(NC1CC1)c1cccc(NS(=O)(=O)c2ccc(F)cc2F)c1 | 0 | -4
Cc1cc(C(=O)N(CC2CCCO2)c2nc3c(F)cccc3s2)nn1C (stereo unspecified) | 8 | 5
CC1(C)CC(=O)CC(=NNc2c(Cl)cc(Cl)cc2Cl)C1 | -5 | -6
Nc1nnc(SCCCOc2ccccc2)s1 | 12 | 13
CCOC1CC(NC(=O)c2c(C)noc2C)C12CCCCC2 (stereo unspecified) | -8 | -9
CCOc1ccc(CCC2CCN(C(=O)Nc3ccccc3)CC2)cc1 | -4 | -3
CCN=c1scc(C)n1N=Cc1cc(Br)c(O)c(Br)c1 | 0 | 2
Cn1cc(C(=O)N2CCCCCC2)cc(NC(=O)C2CC2)c1=O | -6 | -16
CC1CCN(C(=O)C2CCCN(CCCc3cn[nH]c3)C2)CC1 (stereo unspecified) | 6 | 2
COc1cc(C)c(S(=O)(=O)Nc2ccc(C)cc2C(=O)O)cc1C | 0 | 9
CC(C)n1ncc2cc(NC(=O)C3=NN(c4ccc(F)cc4)C(C(N)=O)C3)cnc21 (stereo unspecified) | 4 | 13
C#Cc1ccc(CN2CCN(C3CCCCC3)C(CCO)C2)cc1 (stereo unspecified) | -1 | -11
CCOc1ccc(N(CC(=O)NCc2ccccn2)S(=O)(=O)c2ccc(SC)cc2)cc1 | 5 | 5
CNS(=O)(=O)c1cc(C(=O)NCc2ccc3c(c2)OCCO3)cc(C)c1C | 2 | 0
COC(=O)C(C)NC(=O)Cn1nc(N2CCOCC2)ccc1=O (stereo unspecified) | 2 | 32

smiles | NPYLR7 ag | NPYLR7 ag max-min
Cc1cc(C)[n+]2nc(SCc3ccccc3)sc2n1 | -5 | -13
C=CCn1c(SC(C)C(=O)NC2CCCC2)nc2ccsc2c1=O (stereo unspecified) | 13 | 2
O=C(Nc1nc(-c2ccc(Cl)c(Cl)c2)cs1)c1ccco1 | -3 | -11
CN1CCCC1(C)C(=O)Nc1ccc(OC(F)F)cc1 (stereo unspecified) | 1 | -2
CC1=C(C(=O)OCCOC(C)C)C(c2cccc(F)c2)C2=C(CCCC2=O)N1 (stereo unspecified) | -9 | -12
Cc1oc(-c2cccc(NC(=O)CC(C)C)c2)nc1CNC(=O)Cc1cc(F)cc(F)c1 | 56* | 54*
CC(=O)Nc1ccc(NC(=O)COc2coc(CN3CCc4ccccc4C3)cc2=O)cc1 | 4 | 2
Cc1csc(NC(=O)c2ccc3c(c2)OCO3)n1 | 0 | -1
COc1nc(C)cc(Oc2ccc(=O)[nH]n2)n1 | 1 | 7
O=C1C=C(NCCNC(=O)C2CC2)CC2(CCCCC2)C1 | -2 | 8
O=C(NCC(CO)Cc1ccccn1)C(c1ccccc1)N1CCCCC1=O (stereo unspecified) | 13 | 10
COC(=O)CN1CCN(c2nc(C(C)(C)C)nc3c2cnn3C)C(C)C1=O (stereo unspecified) | 0 | -9
O=P1(N2CCc3ccccc3C2)C=C(c2ccccc2)SC(c2ccccc2)=C1 | 20 | 30
O=C(COc1ccc(Cl)cc1Cl)NCCn1nc(-c2cccnc2)ccc1=O | 6 | -1
Cc1csc(C2CCCCN2C(=O)C(C)Oc2ccc(Cl)cc2C)n1 (stereo unspecified) | -2 | -4
CC(C)C(NC(=O)c1ccco1)C(=O)NCCN(C(C)C)C(C)C (stereo unspecified) | 5 | 4
CC12CC3CC(C)(C1)CC(C(=O)N[C@H]1CCCC[C@@H]1O)(C3)C2 | 7 | 2
CC(C)C(C)CC(=O)N1C[C@@H]2CCCN(C(=O)CC(C)C(C)C)[C@@H]2C1 (stereo partly specified) | -5 | -6
CC(C)OCc1ccc(C(=O)N2CCN(CC(=O)N3CCCC3)CC2)cc1 | 5 | 2
O=C(c1cn[nH]n1)N(CCCO)Cc1cccnc1 | 4 | 2
COc1ccc(-c2ccc(NS(C)(=O)=O)cc2)nn1 | -4&-3 | -5&13
Cc1nc2ncnn2c(C)c1CC(=O)N1CCC(Cc2ccccc2)CC1 | 4 | 3
O=C(NCCN1CCCCC1)C(C1CCCC1)N1CCN(C(=O)c2cccs2)CC1 (stereo unspecified) | -5 | 3
COc1cccc(CC2(CO)CCCN(Cc3cc(F)ccc3-n3cccn3)C2)c1 (stereo unspecified) | 12 | 15
COCCNC(=O)C(NC(=O)CC(C)C)C1CCN(C(=O)C2CC2)CC1 (stereo unspecified) | -2 | 5
CC(C)c1cc(C2CCN(Cc3ccnc(C(C)C)n3)CC2)[nH]n1 | 1 | 0
CSc1nc(-c2ccccc2)nn1C(=O)c1ccc(Cl)cc1 | 6 | 5
Cc1ccc(C)c(Cn2cnc3c(nnn3C)c2=O)c1 | 3 | -1
Cc1ccc(NC(=O)C2Nc3ccccc3S(=O)(=O)N2)c(C)c1 (stereo unspecified) | 4 | 9
CC(C)N(C(=S)Nc1cccnc1)c1ccccc1 | -5 | -6

Another view of some results above:
Each structure is followed by: NPYLR7 ag, NPYLR7 ag max-min
CCN=c1scc(C)n1N=Cc1cc(Br)c(O)c(Br)c1
 : 0, 2
Cn1cc(C(=O)N2CCCCCC2)cc(NC(=O)C2CC2)c1=O
 : -6, -16
CC1CCN(C(=O)C2CCCN(CCCc3cn[nH]c3)C2)CC1 (stereo unspecified)
 : 6, 2
COc1cc(C)c(S(=O)(=O)Nc2ccc(C)cc2C(=O)O)cc1C
 : 0, 9

The list continues:
smiles | NPYLR7 ag | NPYLR7 ag max-min
COCC(=O)N(Cc1ccc(OC)c(OS(=O)(=O)c2ccc(F)cc2)c1)Cc1ccco1 | 3 | 10
CN1C[C@H](NC(=O)c2cccc(NCc3ccc(F)cc3)c2)C[C@H]1CO | 8 | 5
CC(C)(C)c1cc2nc(C(=O)NCc3ccccn3)cc(-c3ccccc3F)n2n1 | -6&6 | 0&25
CC1(Cc2ccc(C(F)(F)F)o2)C(=O)Nc2ccc(-c3ccsc3)cc21 (stereo unspecified) | 2 | 2
CC(C)Nc1ccc(C(=O)NCc2ccc3c(c2)OCO3)cn1 | -7 | -12
Cc1ccc(Cc2nsc(N(CCC(=O)N3CCN(C/C=C/c4ccccc4)CC3)C(C)C)n2)cc1 | 17 | 17
O=C(NCCNc1ccccc1)c1ccccn1 | 3 | 1
N#Cc1c(NC(=O)CSc2ncn[nH]2)sc2c1CCC2 | 6 | 10
O=C(NCc1cccs1)c1cccnc1N1CCN(C(=O)CCC2CCCC2)CC1 | 29 | 27
COCCN1C(=O)CC(CC(=O)N(C)C(C)c2nc(C)cs2)(c2ccccc2OC)C1=O (stereo unspecified) | 13 | 0
N#CCSc1nnc(-c2ccc(OC(F)F)cc2)o1 | 3 | 3
CCC(C)N(Cc1c(-c2ccccc2)noc1N1CCOCC1)C(=O)c1cccc(F)c1 (stereo unspecified) | 3 | 7
COc1cccc(-c2ccc3nnc(SCC(=O)NC4CCCCC4)n3n2)c1 | -13 | -12
Nc1nc(CCCNC(=O)c2cn(-c3ccccc3)nn2)cs1 | 1 | 5
CN(CC1CCCCO1)C(=O)c1cn(Cc2ccc(Cl)cc2)nn1 (stereo unspecified) | 23 | 11
O=C(CCCN1C(=O)c2cccc3cccc(c23)C1=O)Nc1ccc2c(c1)OCO2 | 12 | 7
Cc1n[nH]c(C)c1Sc1ccccc1N=Cc1cc([N+](=O)[O-])cc([N+](=O)[O-])c1O | -11 | -17
CCOC(=O)c1ccc2c(c1)nc(SCc1cccc(SC(F)(F)F)c1)n2CCc1ccc(OC)cc1 | -3 | -12
CCc1nnc(NC(=O)CN2C(=O)NC3(CC(C)CC(C)(C)C3)C2=O)s1 (stereo unspecified) | 20 | 18
CCc1[nH]n(-c2ccc(F)cc2)c(=O)c1C1=C([n+]2ccccc2)C(=O)N(c2ccc(C)cc2)C1=O | -6 | -1
O=C(OCCN(C1=NS(=O)(=O)c2ccccc21)c1ccccc1Cl)c1ccccc1 | 2 | 5
Cc1ccc(-n2c3nc4ccccc4nc3c3c(=N)oc(C)nc32)cc1 | 8 | 15
CCc1nc2c(OCC(=O)c3ccc(F)cc3)cccn2c1N(C)C(=O)c1ccccc1F | -8 | -12
O=C(CSc1ncnc2sc3c(c12)CCCC3)c1cccs1 | 12&19 | 6&23
O=C(c1cncc(N2CCCC(N3CCCC3=O)C2)n1)N1CCCCC1 (stereo unspecified) | -2 | -7
Cc1cc(C)n(CCNc2nncc(-c3ccccc3F)n2)n1 | 5 | 3
Cc1cc[n+](C2=C(c3c(C)[nH]n(-c4ccc(F)cc4)c3=O)C(=O)N(C(C)C)C2=O)cc1C | -6 | -5
CN(C)CCCN(C(=O)c1cccs1)c1nc2c(F)cc(F)cc2s1 | 3 | 2
CC(=O)C1=C(C)OC(=N)C(C#N)C1c1cc([N+](=O)[O-])ccc1Cl (stereo unspecified) | -6 | -11
CCCCn1nnnc1COc1cc(OC)ccc1C(N)=O | 4 | 3

Rewritten with two lines to a compound: entries from further up
Order of values: NPYLR7 ag	NPYLR7 ag max-min
O=C(c1cncc(N2CCCC(N3CCCC3=O)C2)n1)N1CCCCC1 (stereo unspecified)
→ -2	-7
Cc1cc(C)n(CCNc2nncc(-c3ccccc3F)n2)n1
→ 5	3
Cc1cc[n+](C2=C(c3c(C)[nH]n(-c4ccc(F)cc4)c3=O)C(=O)N(C(C)C)C2=O)cc1C
→ -6	-5
CN(C)CCCN(C(=O)c1cccs1)c1nc2c(F)cc(F)cc2s1
→ 3	2

Later entries:
smiles | NPYLR7 ag | NPYLR7 ag max-min
CCOC1CC(O)C12CCN(C(C)c1cc(C(F)(F)F)cc(C(F)(F)F)c1)CC2 (stereo unspecified) | 4 | 9
Cc1ccccc1COC1CCCN(C(=O)c2cccs2)C1 (stereo unspecified) | -12 | -5
Cc1nn2c(nc1=O)-c1ccccc1NC2C(Cl)(Cl)Cl (stereo unspecified) | 1 | 0
CCC(CO)N(Cc1ccccn1)C(=O)c1ccc(=O)[nH]c1 (stereo unspecified) | -5 | -9
CCC(=O)Nc1c(-c2cccs2)c(=O)c2ccccc2n1C | -2 | -4
CC(=O)N(Cc1ccc2c(c1)OCO2)C1CC(=O)N(c2ccc(F)cc2)C1=O (stereo unspecified) | 4 | 0
CC1(Cc2c(Cl)cccc2Cl)C(=O)Nc2c(Cl)cccc21 (stereo unspecified) | 5 | 4
CN(C(=O)COCC1CCCO1)C1CCCCCC1 (stereo unspecified) | -3 | -4
COc1cccc2c1OCCCN(Cc1nc(Cc3ccccc3Cl)no1)C2 | 4&15 | -3&6
CCOC(=O)c1cnc(Nc2nc3ccccc3o2)nc1-c1ccccc1 | 13 | 2
COc1cc(C2CC(=O)Nc3n[nH]c(C)c32)cc(OC)c1OC (stereo unspecified) | -3 | -8
Cc1cccc(C)c1Oc1ccccc1NC(=O)C(=O)N1CCC(O)CC1 | -3 | 92
O=C1C=CC(=O)N1c1ccc(SC(F)F)cc1 | 7 | 8
COCCNC(=O)[C@@H](C)C1CC[C@@]2(C)Cc3sc(CS(=O)(=O)c4ccc(Cl)cc4)nc3[C@@H](C)[C@@H]2[C@H]1O (stereo partly specified) | -5 | -15
COCCNC(=O)Cn1nc2c(c1NC(=O)c1ccc(C(C)(C)C)cc1)CSC2 | -5 | 2
C=CCCC(=O)N1CC(=O)N2CCc3cc(OC)c(OC)cc3C2C1 (stereo unspecified) | -2 | 4
CSc1cccc(NC(=O)CN2CCC(NS(C)(=O)=O)CC2)c1 | 4 | 2
O=C(CCc1csc(NC(=O)c2ccc[nH]c2=O)n1)Nc1ccccc1 | -7 | -14
CN(Cc1c[nH]c2ccccc12)CC1CCN(CCc2cccc(F)c2)CC1 | 1 | -4
CCN(C(=O)C(C)SCc1cc(C)on1)c1ccccc1 (stereo unspecified) | 6 | 6
O=S(=O)(c1ccc(Oc2ccccc2Cl)c(S(=O)(=O)N2CCCC2)c1)N1CCCC1 | 7 | 2
O=C(CN1CCN(Cc2nc(-c3cccs3)cs2)CC1)N1CCc2ccccc21 | -18 | -21
Cc1ccn2c(C(=O)N3CCCC(Nc4cccc(F)c4)C3)nnc2n1 (stereo unspecified) | 4 | -4
CC(=O)ON=C(C)c1cc(C(C)(C)C)cc2c1CCC2(C)C | 12 | 4
Oc1c2cccnc2cn1CCc1csc(-c2ncccn2)n1 | 1 | -3
CNC(=O)CCCc1nnc2n(C)c(=O)c3sccc3n12 | 3 | 1
CCC(=O)Nc1c(-c2ccc(F)c(F)c2)nc2ccccn12 | -13 | -8
